# Bioassay records (PubChem)
# HIV Env fusion: blocks HIV Env-driven cell-cell fusion. HeLa-JRFL Env/CEM21 cell fusion, luciferase. inhibition, % at 12.3 µM. 360,000 compounds, 1.1% hits. AID 651610;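 active = mean replicate inhibition score of at least 50 and every replicate individually at or above 50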;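 note: 0% = plate neutral controls and 100% = maraviroc near 300 nM; one replicate is shown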
# An asterisk follows results filed as active; [ ] = another dose, or the depositor's remark.
# Sample of the layout:
SMILES,HIV Env fusion
COc1ccc(NC(=O)N(C)C[C@@H]2Oc3ccc(NS(=O)(=O)c4ccc(F)cc4)cc3CC(=O)N([C@@H](C)CO)C[C@@H]2C)cc1,-2[16.7 µM]
CO[C@@H]1CN(C)C(=O)c2cc(NS(=O)(=O)CC(F)(F)F)ccc2OC[C@H](C)N(C(=O)NC(C)C)C[C@H]1C,9[16.7 µM]
Cc1ccc[n+](C2=C([O-])c3ccccc3C(=O)C2=O)c1,-8

# The whole of this part, from the start:
SMILES,HIV Env fusion
COc1ccc(NC(=O)N(C)C[C@@H]2Oc3ccc(NS(=O)(=O)c4ccc(F)cc4)cc3CC(=O)N([C@@H](C)CO)C[C@@H]2C)cc1,-2[16.7 µM]
CO[C@@H]1CN(C)C(=O)c2cc(NS(=O)(=O)CC(F)(F)F)ccc2OC[C@H](C)N(C(=O)NC(C)C)C[C@H]1C,9[16.7 µM]
Cc1ccc[n+](C2=C([O-])c3ccccc3C(=O)C2=O)c1,-8
O=C(C[C@H]1C[C@H]2c3cc(NC(=O)Cc4ccncc4)ccc3O[C@H]2[C@@H](CO)O1)NCCc1ccccc1,-15[16.7 µM]
COC(=O)N1C[C@H](OCc2ccccc2)[C@H]2C[C@@H]1c1ccccc1O2,-10
CN1CCN(C(=O)C[C@H]2CC[C@@H]3[C@H](COC[C@H](O)CN3C(=O)Nc3ccc(F)cc3)O2)CC1,12[16.7 µM]
O=C(C[C@H]1C[C@H]2c3cc(NC(=O)Cc4ccncc4)ccc3O[C@H]2[C@H](CO)O1)NCCN1CCCCC1,-9[16.7 µM]
C[C@@H]1CN([C@@H](C)CO)C(=O)c2cccc(N(C)C)c2O[C@H]1CN(C)Cc1ccc(-c2ccccc2)cc1,15[16.7 µM]
COC(=O)[C@]12C[C@H](CC(=O)NCc3cccs3)C(=O)N(Cc3ccc4c(c3)OCO4)C1=C[C@H](COCc1ccccc1)O[C@@H]2C,-12
CC(C)NC(=O)Nc1ccc2c(c1)CC(=O)N([C@H](C)CO)C[C@H](C)[C@@H](CN(C)C(=O)NC1CCCCC1)O2,-5[16.7 µM]
O=S(=O)(NCc1ccccc1)c1cc(Br)ccc1Br,7
CN1CCN(C(=O)C[C@H]2C[C@H]3c4cc(NC(=O)Cc5ccncc5)ccc4O[C@H]3[C@@H](CO)O2)CC1,-10[16.7 µM]
c1ccc(Cc2cnc(N3CCN(Cc4cccc(-c5ccsc5)n4)CC3)nc2)cc1,30
COc1ccc(Cl)cc1NC(=O)c1cccc(S(=O)(=O)Nc2c(C)n(C)n(-c3ccccc3)c2=O)c1,-374
C[C@H]1CN([C@@H](C)CO)C(=O)Cc2cc(NC(=O)C3CC3)ccc2O[C@H]1CN(C)C(=O)Nc1cccc2ccccc12,1[16.7 µM]
O=C(NCc1cc(F)cc(F)c1)[C@@H]1[C@@H](CO)[C@@H]2Cn3c(cccc3=O)[C@H]1N2C(=O)c1cnccn1,4[16.7 µM]
CN1C(=O)c2cc(NC(=O)c3ccc(F)c(F)c3)ccc2OC[C@H]2O[C@H](CC(=O)N[C@H]3CCN(Cc4ccccc4)C3)CC[C@H]21,21[16.7 µM]
CO[C@@H]1CN(C)C(=O)c2cc(NC(=O)c3nc4ccccc4s3)ccc2OC[C@H](C)N(Cc2cncnc2)C[C@H]1C,13[16.7 µM]
O=C(N[C@H](C(=O)N1CCC[C@H]1C(=O)NCc1ccccc1)c1ccccc1)c1ccccc1,-3
CC(CNC(=O)[C@@H](Cc1ccccc1)NC(=O)[C@H]1O[C@@H](n2cnc3c(=O)[nH]c(N)nc32)[C@H](O)[C@@H]1O)c1ccccc1 (stereo partly specified),-43
CO[C@H]1CN(C)C(=O)c2ccc(NC(=O)NC(C)C)cc2OC[C@@H](C)N(C(=O)CC2CC2)C[C@H]1C,6[16.7 µM]
CCC(=O)N(C)C[C@H]1Oc2cc(C3=CCCCC3)ccc2S(=O)(=O)N([C@H](C)CO)C[C@@H]1C,7[16.7 µM]
CO[C@@H]1CC[C@@H]2CCN(C)C(=O)CC3(CCCCC3)CN(C)C(=O)c3cc(C#N)ccc3OC[C@H]1O2,15[16.7 µM]
CC(=O)N1[C@@H]2c3cccc(=O)n3C[C@@H]2[C@@H](CO)[C@@H]1C(=O)NCc1ccccc1F,19[16.7 µM]
CO[C@H]1CN(C)C(=O)c2ccc(NS(=O)(=O)c3cn(C)cn3)cc2OC[C@H](C)N(CC2CC2)C[C@@H]1C,10[16.7 µM]
COc1ccc2c3c(n(C)c2c1)[C@@H](CO)N(Cc1ccccc1OC)CC31CN(CC2CC2)C1,-23[16.7 µM]
CNC[C@@H]1OCCCC[C@@H](C)Oc2ccc(NC(=O)NC(C)C)cc2C(=O)N([C@H](C)CO)C[C@H]1C,5[16.7 µM]
COc1ccccc1NC(=O)N(C)C[C@@H]1OCc2ccccc2-c2ccccc2C(=O)N([C@H](C)CO)C[C@@H]1C,-86[16.7 µM]
COCCCNC(=O)c1nnn2c1nc(N)c1cc(Cl)ccc12,-154
COc1ccccc1CNC(=O)C[C@H]1C[C@@H]2c3cc(NC(=O)Nc4ccc(C(F)(F)F)cc4)ccc3O[C@@H]2[C@H](CO)O1,12[16.7 µM]
C[C@H](CO)N1C[C@H](C)[C@@H](CN(C)CC2CC2)OCCCC[C@H](C)Oc2ccc(NS(=O)(=O)c3ccc(F)cc3)cc2C1=O,30[16.7 µM]
O=C(NC[C@@H]1CC[C@H]2[C@H](CN2Cc2cccc(Cl)c2)O1)C1CCC1,-25[16.7 µM]
C[C@@H]1CN([C@@H](C)CO)C(=O)c2cc(C#C[C@@H](C)O)cnc2O[C@@H]1CN(C)CC1CCOCC1,-27[16.7 µM]
C[C@@H]1CN([C@H](C)CO)C(=O)c2cc(NC(=O)c3ccncc3)ccc2O[C@@H](C)CCCCO[C@@H]1CN(C)Cc1ccncc1,-6[16.7 µM]
Cc1ccccc1NC(=O)N(C)[C@H]1C[C@H]2c3[nH]c4c(-c5ccc6c(c5)OCO6)cccc4c3CCN2C(=O)[C@H]1[C@H](C)O,-6
CN1[C@H](C(=O)NCc2ccccn2)[C@@H](CO)[C@@H]2Cn3c(ccc(-c4cccc(F)c4)c3=O)[C@@H]21,-60[16.7 µM]
CS(=O)(=O)Nc1ccc2c(c1)[C@H]1C[C@@H](CC(=O)NCc3ccccn3)O[C@@H](CO)[C@H]1O2,18[16.7 µM]
C[C@H]1CCCCO[C@H](CN(C)C(=O)c2ccncc2)[C@@H](C)CN([C@@H](C)CO)C(=O)c2cc(NC(=O)c3ccncc3)ccc2O1,12[16.7 µM]
COc1ccc2c3c([nH]c2c1)[C@@H](CO)N(Cc1ccccc1)CC31CCN(C(=O)Nc2cccc(F)c2)CC1,1[16.7 µM]
CC(C)NC(=O)N(C)C[C@H]1OCCCC[C@H](C)Oc2ccc(NC(=O)CCC(F)(F)F)cc2C(=O)N([C@@H](C)CO)C[C@@H]1C,22[16.7 µM]
CN(C)CC(=O)N1CC2(C1)[C@H](c1ccccc1)[C@H](CO)N2C(=O)C1CCCC1,-7[16.7 µM]
CN(C)c1ccc2c(c1)[C@@H]1C[C@@H](CC(=O)NCc3cccc(F)c3)O[C@@H](CO)[C@@H]1O2,-7[16.7 µM]
C[C@H]1CN([C@@H](C)CO)C(=O)Cc2cc(NC(=O)Nc3ccc(C(F)(F)F)cc3)ccc2O[C@H]1CN(C)S(=O)(=O)c1ccc(F)cc1,-4[16.7 µM]
O=C(NC1CCCC1)[C@H]1[C@H](CO)[C@H]2Cn3c(ccc(C4=CCCC4)c3=O)[C@@H]1N2C(=O)c1ccccc1,-3[16.7 µM]
CN1CCN(C(=O)C[C@@H]2CC[C@H]3[C@@H](COC[C@H](O)CN3CC3CCOCC3)O2)CC1,-11[16.7 µM]
CCCCc1c(-c2ccccc2OC)ncn1Cc1ccc(OC)cc1,61*
C[C@@H]1CN([C@@H](C)CO)C(=O)c2ccccc2-c2ccccc2CO[C@H]1CN(C)S(=O)(=O)c1ccccc1F,11[16.7 µM]
Nc1ccn([C@@H]2O[C@H](C(=O)N3CCN(CCO)CC3)[C@@H](O)[C@H]2O)c(=O)n1,11
CO[C@H]1CN(C)C(=O)c2cc(NC(=O)NC(C)C)ccc2OC[C@H](C)N(C(=O)C2CCC2)C[C@H]1C,0[16.7 µM]
O=C(C[C@@H]1CC[C@@H]2[C@H](COC[C@@H](O)CN2C(=O)Nc2ccc(Cl)cc2)O1)NCCc1ccncc1,4[16.7 µM]

# Among those listed so far, 4 contain a Cl atom.
SMILES,HIV Env fusion
COc1ccc(Cl)cc1NC(=O)c1cccc(S(=O)(=O)Nc2c(C)n(C)n(-c3ccccc3)c2=O)c1,-374
COCCCNC(=O)c1nnn2c1nc(N)c1cc(Cl)ccc12,-154
O=C(NC[C@@H]1CC[C@H]2[C@H](CN2Cc2cccc(Cl)c2)O1)C1CCC1,-25[16.7 µM]
O=C(C[C@@H]1CC[C@@H]2[C@H](COC[C@@H](O)CN2C(=O)Nc2ccc(Cl)cc2)O1)NCCc1ccncc1,4[16.7 µM]

# (further entries)
SMILES,HIV Env fusion
C[C@@H]1CN([C@@H](C)CO)C(=O)c2c(c3ccccc3n2C)-c2ccccc2CO[C@H]1CN(C)S(=O)(=O)c1cccs1,-14[16.7 µM]
O=C(Nc1ccc2c(c1)[C@@H]1C[C@H](CC(=O)N3CCc4ccccc4C3)O[C@@H](CO)[C@@H]1O2)C1CCOCC1,4[16.7 µM]
CCCCc1c(-c2ccccc2OC)ncn1CCc1cccc(F)c1,-25
C[C@H](CO)N1C[C@H](C)[C@@H](CN(C)C(=O)C2CC2)Oc2ncc(-c3cccc(F)c3)cc2C1=O,3[16.7 µM]
C[C@H](NC(=O)C[C@@H]1C[C@@H]2c3cc(NC(=O)NC4CCCCC4)ccc3O[C@@H]2[C@H](CO)O1)c1ccccc1,0[16.7 µM]
CN1CCN(C(=O)C[C@@H]2C[C@H]3c4cc(NC(=O)c5ccc6c(c5)OCO6)ccc4O[C@H]3[C@H](CO)O2)CC1,-21[16.7 µM]
COCCNC(=O)[C@@H]1[C@@H](CO)[C@@H]2Cn3c(ccc(-c4cccc(F)c4)c3=O)[C@H]1N2C(=O)NC(C)C,13[16.7 µM]
COCC(=O)N1C[C@@H](C)[C@@H](OC)CN(C)C(=O)c2cc(NC(=O)C3CCC3)ccc2OC[C@@H]1C,4[16.7 µM]
COc1ccc2c3c([nH]c2c1)[C@@H](CO)N(C(=O)Nc1ccc(F)cc1)CC31CN(S(=O)(=O)c2cccc(C)c2)C1,15[16.7 µM]
CCS(=O)(=O)Nc1ccc2c(c1)C(=O)N(C)[C@H]1CC[C@H](CC(=O)Nc3ccccc3C)O[C@@H]1CO2,7[16.7 µM]
COc1ccc2c3c([nH]c2c1)[C@H](CO)N(C(C)=O)CC31CCN(C(=O)Nc2ccccc2F)CC1,7[16.7 µM]
CCCNC(=O)Nc1ccc2c(c1)C(=O)N(C)C[C@H](OC)[C@@H](C)CN(C(=O)c1ccccc1F)[C@@H](C)CO2,-8[16.7 µM]
COCC(=O)Nc1ccc2c(c1)OC[C@@H](C)N(C(=O)CN1CCOCC1)C[C@@H](C)[C@H](OC)CN(C)C2=O,8[16.7 µM]
COCC(=O)N(C)C[C@H]1Oc2ncc(-c3ccc(C#N)cc3)cc2C(=O)N([C@H](C)CO)C[C@@H]1C,7[16.7 µM]
CN1CCN(C(=O)c2cc3c(c(-c4cccc(-c5ccccc5F)c4)n2)[C@H](CCO)N([S@@](=O)C(C)(C)C)C3)CC1,-4[16.7 µM]
C[C@@H]1CCCCO[C@H](CN(C)CC2CC2)[C@H](C)CN([C@@H](C)CO)C(=O)c2cc(NS(C)(=O)=O)ccc2O1,-19[16.7 µM]
CO[C@H]1CN(C)C(=O)c2ccc(NS(=O)(=O)c3ccccc3C)cc2OC[C@H](C)N(C)C[C@H]1C,-8[16.7 µM]
CCC(=O)N1C[C@@H](C)[C@H](OC)CN(C)C(=O)c2cc(NC(=O)c3ccc(OC)cc3)ccc2OC[C@H]1C,15[16.7 µM]
COc1ccc(C(=O)Nc2ccc3c(c2)C(=O)N(C)C[C@H](OC)[C@H](C)CN(C)[C@H](C)CO3)cc1,-15[16.7 µM]
COC(=O)[C@H]1[C@H](CO)[C@H]2Cn3c(ccc(-c4ccccc4)c3=O)[C@H]2N1C(=O)CC1CC1,-11[16.7 µM]
CN1C(=O)c2cc(NC(=O)NC3CCCC3)ccc2OC[C@H]2O[C@H](CC(=O)NCC3CC3)CC[C@H]21,13[16.7 µM]
CC(C)NC(=O)Nc1ccc2c(c1)C(=O)N([C@@H](C)CO)C[C@H](C)[C@H](CN(C)C)O2,-9[16.7 µM]
C[C@H]1CN([C@@H](C)CO)C(=O)c2cc(NC(=O)Nc3ccccc3)ccc2O[C@H]1CN(C)C(=O)Nc1ccc2c(c1)OCO2,-18[16.7 µM]
Cc1cc(=O)c2c(ccc3c(=O)cc(C)[nH]c32)[nH]1,-18
CO[C@@H]1CC[C@@H]2CCOc3ccc(C#N)cc3C(=O)N(C)C[C@@H](OC)[C@H](C)C(=O)N(C)C[C@@H]1O2,-16[16.7 µM]
O=C(C[C@@H]1C[C@@H]2c3cc(NC(=O)C4CCOCC4)ccc3O[C@@H]2[C@H](CO)O1)NCCN1CCCCC1,12[16.7 µM]
COc1cc2c(c(OC)c1OC)C1(CCCCC1)CC2NS(=O)(=O)C(C)C (stereo unspecified),1
COCC(=O)Nc1ccc2c(c1)[C@H]1C[C@H](CC(=O)N3CCOCC3)O[C@H](CO)[C@H]1O2,-14[16.7 µM]
CCCNC(=O)Nc1ccc2c(c1)C(=O)N(C)[C@H]1CC[C@H](CC(=O)Nc3ccccc3C)O[C@@H]1CO2,-7[16.7 µM]
C[C@H](CO)N1C[C@H](C)[C@H](CN(C)Cc2ccc(-c3ccccc3)cc2)Oc2ccc(NS(=O)(=O)c3cn(C)cn3)cc2CC1=O,-17[16.7 µM]
COc1cccc(NC(=O)C[C@@H]2CC[C@@H]3[C@@H](COc4ccc(NC(=O)C5CCOCC5)cc4C(=O)N3C)O2)c1,-4[16.7 µM]

# Only part of the results is shown; the hit share may differ from the screen's.
